Screening results: PubChem BioAssay, National Center for Advancing Translational Sciences (NCATS)
Vaccinia Venus = vaccinia inhibition (Venus reporter); Potency, µM (doses to about 36.5 µM), for inactives: at the top dose activity change, negative = inhibition, usual class: inhibitors; Vaccinia virus Venus reporter expression, fluorescence; hit rate 0.46% among 330,000; active means well fitted inhibition curve with a large enough effect; inconclusive means small, poorly fitted or top-dose-only effect; inactive means no such curve, though single readings can be large or run the other way; tested in A549 cells; further: nearly all actives have a fitted effect of over 30% in size; inactives centre near -10
Vaccinia mCherry = inhibitors of vaccinia virus infection (mCherry reporter signal); Potency, µM (doses to about 36.5 µM), without a hit: at the highest dose activity change, negative = inhibition, hits mostly inhibitors; Vaccinia virus mCherry reporter infection, fluorescence; about a quarter of the inactives have no number; hit rate 0.63% among 310,000; active = well fitted inhibition curve with a large enough effect; inconclusive = small, poorly fitted or top-dose-only effect; inactive = no such curve, though single readings can be large or run the other way; tested in A549 cells; further: nearly all actives have a fitted effect of over 35% in size; inactives centre near -10
Active calls of the source: *; i = inactive; ? = inconclusive; · = no result given; & = joins results of further samples; [ ] = another dose, or the depositor's remark. On the % scale 0 is the no-effect control and ±100 the full control effect; potency means the concentration at half of the fitted maximal effect. Not a hit list (roughly 0.86% active in at least one column).

SMILES	Vaccinia Venus	Vaccinia mCherry
CCOc1ccc(N(C)S(=O)(=O)c2ccc(C)c(C(=O)N3CCN(Cc4ccc5c(c4)OCO5)CC3)c2)cc1	?	-23%
Cc1ccc(CNC(=O)c2cccn2-c2nnc(N3CCCC3)s2)cc1	-3%	-5%
Cc1ccc(C(=O)NCCCNC(=O)c2ccc(Cl)cc2)cn1	-20%	-7%
CC(CNC(=O)c1cc2cc(S(=O)(=O)N3CCCCC3)ccc2n1C)c1ccccc1 (stereo not drawn)	-17%	-22%
CCC1(C)Cc2ccccc2-c2nc(NCCO)n(-c3ccc(C)cc3)c(=O)c21 (stereo not drawn)	?	-25%
Cc1ccccc1NC(=S)NN1CCN(C)CC1	0%	·
CCCCCCn1c(=O)n2n(c1=O)C[C@]1(OC(=O)NCc3ccc(OC)c(OC)c3)CN(S(=O)(=O)c3ccc(C)cc3)C[C@]1(O)C2	?	i
CCOc1ccc(NC(=O)c2ccco2)cc1S(=O)(=O)N1CCCC1	-4%	-9%
COc1ccc(CCNC(=S)N2CCN(S(=O)(=O)c3ccccc3F)CC2)cc1	-16%	-1%
CC1(C)NC(=O)N(CC(O)CNC23CC4CC(CC(C4)C2)C3)C1=O (stereo not drawn)	-7%	-13%
N#C/C(=C/c1ccc(N2CCCCC2)cc1)c1cccc(F)c1	6%	-12%
N#CC1=C(N)NC(SCc2ccccc2)=C(C#N)C12CCCC2	-16%	-25%
CCOc1ccc(CNC(=O)CSc2nnc(C)c3c(C)n(-c4ccccc4)nc23)cc1	-7%	0%
COc1ccccc1OCCNS(=O)(=O)c1ccc2oc3ccccc3c2c1	-12%	-8%
COc1ccc(C/C(N)=N/OC(=O)COc2ccccc2C)cc1	-15%	-18%
COc1cccc(-c2nc(CS(=O)CC(=O)NCc3ccc4c(c3)OCO4)c(C)o2)c1 (stereo not drawn)	2%	2%
CCC(Oc1ccccc1)C(=O)Nc1ccc(S(=O)(=O)Nc2ncccn2)cc1 (stereo not drawn)	-7%	-15%
COc1cccc(N2CCN(C(=O)CCSCc3ccccc3F)CC2)c1	4%&-8%	-14%&3%
C=CCN1N=C(/C=C/c2ccc(C)cc2)CCC1=O	-19%	-25%
COc1ccc(CCC(=O)NNC(=O)Nc2ccccc2Cl)cc1	-2%	-22%
COc1ccc(Cn2nnnc2C(c2ccc(F)cc2)N2CCN(C3CCCC3)CC2)cc1 (stereo not drawn)	?	·
Cc1cccc(OCCCC(=O)NNC(=O)c2cccc(N(C)C)c2)c1	-9%	-1%
O=C(CCSc1nc(-c2ccco2)cc(C(F)(F)F)n1)NCCN1CCOCC1	-2%	5%
O=C(C1=NN[C@@H]2C(=O)N(c3cccc(F)c3)C(=O)[C@H]12)c1ccc2ccccc2n1	-1%	-17%
O=S1(=O)c2ccccc2N(Cc2cccc(C(F)(F)F)c2)c2ccccc21	-10%	-15%

Following part:
SMILES	Vaccinia Venus	Vaccinia mCherry
COc1ccc(CN2CCN(C(=O)c3cccc4ccccc34)CC2)cc1Br	-9%	?
Cc1cc(Br)ccc1NC(=O)CCNS(=O)(=O)c1cccc2nonc12	-4%	-4%
CC1CCN(S(=O)(=O)c2ccc(NC(=O)c3ccccc3F)cc2)CC1	-11%	-14%
Cc1ccc(NC(=O)CN(C)C(=O)C(c2ccccc2)c2ccccc2)cc1	-26%	-16%
Cc1cccnc1NC(=O)C1CCN(S(=O)(=O)c2c(C)noc2/C=C/c2ccco2)CC1	-5%	-2%
CCOc1ccc(CCNC(=O)C2COc3ccccc3C2)cc1OCC (stereo not drawn)	-9%[7.34 µM]	-17%
CC(=O)Oc1ccc2ccccc2c1C(NC(=O)Cc1ccccc1)c1ccc(Cl)cc1 (stereo not drawn)	?	28µM*
Cc1c(C=O)c2ccccc2n1Cc1ccccc1	-17%	-20%
OCCNc1ncnc2c1nnn2Cc1ccccc1Cl	-25%	-9%
Cc1ccc([C@H]2C(C(=O)O)=CC[C@@H](c3ccc(C)cc3)N2S(=O)(=O)c2ccc(C)cc2)cc1	-7%	i
COc1cccc(-n2cc3c(=O)n(C)c(=O)n(C)c3c2)c1	-22%	·
COc1ccc(NC(=O)CCC(=O)Nc2cc(OC)c(NC(=O)c3ccco3)cc2OC)c(OC)c1	-7%	-28%
CCN(CC)c1ncnc2c1ncn2[C@H]1CN(Cc2ccc(OC)cc2)C[C@@H](CO)O1	-18%	-18%
CC1C(=O)CCN(C(C)C)C1C (stereo not drawn)	-13%	-18%[1.46 µM]
CN1C2C=C(N(CCc3ccccc3)C(=O)c3ccc(Cl)cc3)CC1CC2 (stereo not drawn)	-7%	-15%
Cc1cccc(CNC(=O)C(C)n2nc(C)c3c(C)n(-c4ccccc4)nc3c2=O)c1 (stereo not drawn)	-15%	-13%
Cc1ccc(S(=O)(=O)N(C)c2ccc(C(=O)O)cc2)cc1	-10%	-14%
COc1cc(N2CCOCC2)ccc1/C=C1\C(=O)NC(=O)N(C2CCCCC2)C1=O	-3%	-4%
COc1ccc(CNc2ccccc2)cc1Br	-2%	i
CC[C@H](C)[C@H]1CNC(=S)N1CC1CCN(CCCCc2ccccc2)CC1	-12%	-11%
COC(=O)c1ccc(C2C(Oc3ccc(OC)cc3)C(=O)N2CCc2ccc(F)cc2)cc1 (stereo not drawn)	-24%	-26%[1.46 µM]
COC(=O)CCC(=O)OC1(C)C(=O)C2=CN(CCc3c[nH]c4ccccc34)C(c3ccc(OC)cc3)=CC2=C(Br)C1=O (stereo not drawn)	-9%	-17%
O=S(=O)(c1ccc(Cl)cc1)c1nc(-c2ccccc2Br)oc1NCc1ccccc1	-5%	-5%
Cc1cc(NC(=O)c2ccccc2F)ccc1-c1nc2ccccc2s1	-7%	-9%
CCOC(=O)c1ccc(NC(=O)c2nc[nH]c2C(=O)NCC(=O)OC(C)(C)C)cc1	-23%	-3%

One compound at a time, from the list above:
Shown for `OCCNc1ncnc2c1nnn2Cc1ccccc1Cl` → Vaccinia Venus = -25%; Vaccinia mCherry = -9%
Shown for `CN1C2C=C(N(CCc3ccccc3)C(=O)c3ccc(Cl)cc3)CC1CC2` (stereo not drawn) → Vaccinia Venus = -7%; Vaccinia mCherry = -15%

An excerpt of these results, with bars between the fields:
smiles | Vaccinia Venus | Vaccinia mCherry
CCOc1ccc(N(C)S(=O)(=O)c2ccc(C)c(C(=O)N3CCN(Cc4ccc5c(c4)OCO5)CC3)c2)cc1 | ? | -23%
Cc1ccc(CNC(=O)c2cccn2-c2nnc(N3CCCC3)s2)cc1 | -3% | -5%
Cc1ccc(C(=O)NCCCNC(=O)c2ccc(Cl)cc2)cn1 | -20% | -7%
CC(CNC(=O)c1cc2cc(S(=O)(=O)N3CCCCC3)ccc2n1C)c1ccccc1 (stereo not drawn) | -17% | -22%
CCC1(C)Cc2ccccc2-c2nc(NCCO)n(-c3ccc(C)cc3)c(=O)c21 (stereo not drawn) | ? | -25%

Continuation.
SMILES	Vaccinia Venus	Vaccinia mCherry
Cc1ccc(NC(=O)CCCNC(=O)c2ccc(Cl)cc2)c(O)c1	-12%	?
COc1cc2cc(C(C)(C)O)oc(=O)c2cc1OC	-11%	-8%
Cc1ccc(-n2c(=S)[nH]c3sc4c(c3c2=O)CCC4)cc1	-10%	-13%
CC(C)(C)c1ccc(C(=O)NNC(=O)CCc2ccccc2)cc1	-12%[7.34 µM]	0%[7.34 µM]
Cc1cc(C)nc(-c2cccc3c2OC(CNC(=O)c2ccc(Cn4nc(C)cc4C)cc2)C3)n1 (stereo not drawn)	3%	-5%
C/C=C1\NC(=O)[C@@H](NC(=O)[C@H](CCc2ccc(O)cc2)NC(=O)[C@H](C)NC(=O)[C@H](O)CO)[C@@H](C)OC(=O)[C@H](C(C)C)NC(=O)[C@H](Cc2ccc(O)cc2)N(C)C(=O)[C@H](Cc2ccccc2)N2C(=O)C(CC[C@H]2O)NC1=O (stereo partly drawn)	-4%	-14%
CCOC(=O)c1cn[nH]c1NC(=S)Nc1ccccc1	-16%	-21%
Cc1cccc(/C=C/c2onc(C)c2S(=O)(=O)N2CCC(C(=O)NC(C)(C)C)CC2)c1	-13%	-11%
COc1ccc(S(=O)(=O)NC(CC(=O)NCc2ccco2)c2ccco2)cc1 (stereo not drawn)	4%	·
Cc1cc(C=C2C(=O)N(C)C(=S)N(C)C2=O)c(C)n1-c1cccnc1	18%	-6%
N#C/C(=C\c1ccc(Cl)cc1)c1nc(-c2cc3c(ccc4ccccc43)oc2=O)cs1	-1%	-3%
Cc1ccc(Oc2ccc(Cl)cc2N)cc1	-7%	-14%
COC(=O)NNC(=O)COc1cc(C)c(Br)cc1C(C)C	-25%	-22%
CN1C2CCC1/C(=C\c1ccc(F)cc1)C(=O)/C2=C/c1ccc(F)cc1	-4%	-12%
O=C(NCc1ccc2c(c1)OCO2)c1ccc(CS(=O)(=O)Cc2cccc(Cl)c2)o1	-16%	-15%
O=C(O)c1cccc2c1-c1ccc(Cl)cc1C2	-4%	-14%
CCOc1ccc(/C=N/NC(=O)Cn2ccnc2C)cc1	-10%	-28%
C[C@H]1CN([C@@H](C)CO)C(=O)CCCn2nncc2CO[C@@H]1CN(C)Cc1ccc(C(F)(F)F)cc1	-12%	-5%
COc1cc(CNC(=O)Nc2nc(C(N)CCc3ccccc3)cs2)cc(OC)c1OC (stereo not drawn)	-25%	-4%
COC(=O)[C@@]1(Cc2ccc(F)cc2)[C@H]2c3cc(C(=O)N(C)C)n(Cc4ccsc4Br)c3C[C@H]2CN1C(=O)c1ccccc1	?	?
CC(C)CNC(=O)CN(C1CCCCC1)S(C)(=O)=O	5%	-5%
COc1cc(NC(=O)c2ccc([N+](=O)[O-])o2)ccc1NC(=O)c1cccs1	10µM*	10µM*
Cc1cccc(NC(=O)c2oc3ccc(S(=O)(=O)N4CCCCC4)cc3c2C)c1C	-17%	i
Nc1nc2cc(Cl)ccc2n1N	11%	i
COc1ccc(CNCc2c(C(=O)O)c(C)n(Cc3ccccc3C)c2C)cc1OC	-2%	-1%

Next part.
SMILES	Vaccinia Venus	Vaccinia mCherry
COc1ccccc1NC(=O)CSc1nc2ccccc2nc1N1CC(C)OC(C)C1 (stereo not drawn)	0%	20%
CCOC(=O)c1cc(CC)sc1/N=C/c1c(O)ccc2ccccc12	-11%	-20%
O=C(Cc1ccc(Cl)c(Cl)c1)Nc1ccccc1N1CCOCC1	-8%	-10%
COC(=O)c1ccc(N2CCN(C(=O)c3ccccc3)CC2)c(NC(C)=O)c1	-6%	i
CCC(=O)Nc1ccc2nc(C3CC3)n(Cc3ccccc3)c(=O)c2c1	0%	i
CC(=O)Nc1ccccc1NC(=O)c1ccc(C)cc1C	0%	-7%
CC[C@@H](C)CN1C(=O)N[C@@H](c2ccccc2)C(C(C)=O)=C1C	-22%	i
CC(=O)[C@H]1CC[C@H]2[C@@H]3CCC4=CC(=O)CC[C@]4(C)[C@H]3CC[C@]12C	-28%&-27%&-13%	-11%&-6%
S=C1Cc2ccccc2C(c2ccc(Cl)cc2)N1 (stereo not drawn)	-10%	-24%
Cc1c(Cl)ccc2c1NC(=O)[C@]21N[C@@H](Cc2ccccc2)[C@H]2C(=O)N(c3ccc(F)cc3)C(=O)[C@H]21	?	?
COc1cccc(C(=O)N2CCN(S(=O)(=O)Cc3ccccc3)CC2)c1	-2%	i
O=C(COC(=O)CCc1c[nH]c2ccccc12)NCc1ccc2c(c1)OCO2	-10%	-18%
CC(NC(=O)c1ccccc1Cl)C(=O)Nc1ccc2c(c1)OCO2 (stereo not drawn)	-17%	-15%
CN(C)c1nc(Oc2ccc(=O)[nH]n2)nc(N2CCOCC2)n1	-16%	·
CCN(CCC#N)c1ccc(/C=C/c2ccnc3ccccc23)cc1	-7%	0%
CCOC(=O)/C=c1\s/c(=C(\C#N)C(N)=O)n(-c2ccccc2)c1=O	-3%[7.34 µM]	-1%[7.34 µM]
O=C(Cn1cnc2c(cnn2-c2ccccc2)c1=O)NCc1ccccc1	?	?
CCOC(=O)c1[nH]c2cc3c(cc2c1NC(=O)CN1CCCC1)OCO3	-3%	i
C[C@H](NC(=O)OC(C)(C)C)C(=O)NCC1CCC(C(=O)O)CC1 (stereo partly drawn)	-3%	-6%
O=c1[nH]c2ccc(NCc3ccc(-c4ccc(Br)cc4)o3)cc2[nH]1	-9%	-7%
CCCn1nc(C(=O)Nc2ccc(-n3cnnn3)cc2)c2ccccc2c1=O	-1%	-11%
CCOc1ccc(NC(=O)CCn2c(=S)oc3ccccc32)cc1	-9%	i
CN1CCc2c(sc(NC(=O)CSc3ccccc3)c2-c2nc3ccccc3s2)C1	-9%[7.34 µM]	-13%[7.34 µM]
COc1ccccc1C(CNC(=O)c1cccc(NS(=O)(=O)c2ccc(C)c(F)c2)c1)N(C)C (stereo not drawn)	?	-28%
Cc1ccccc1N(CC(=O)NCc1ccco1)C(=O)CNS(=O)(=O)c1ccc(F)cc1	6%	-2%

(listing goes on)
SMILES	Vaccinia Venus	Vaccinia mCherry
COc1cc(C=O)ccc1OCCCCOc1ccccc1[N+](=O)[O-]	-1%	-11%
Cc1ccn2c(=O)nc(SCc3cccc(C(F)(F)F)c3)nc2c1	7%	-7%
NS(=O)(=O)c1ccc(CCNC(=O)c2ccccc2[N+](=O)[O-])cc1	1%	-16%
O=C(COC(=O)c1ccc([N+](=O)[O-])cc1)Nc1ccccc1C(=O)NC1CC1	5%	i
Cc1ccc2c(c1)N(CC(=O)N1CCOCC1)C(=O)C(C)O2 (stereo not drawn)	-20%	-19%
COc1ccc(C(=O)N2CCCC2=O)cc1	-9%&0%	-21%
O=C(C[C@@H]1CC[C@H](NC(=O)Nc2ccc(F)cc2)[C@@H](CO)O1)NCc1cccc(F)c1	-11%	-8%
O=C(NCc1cccnc1)c1c(O)c2cccc3c2n(c1=O)CCC3	-24%	-29%
